Source: PubChem BioAssay (several laboratories)
FGF22 binding = FGF22 (human) thermal shift binding | Q9HCT0 | recombinant FGF22 thermal shift, SYPRO orange fluorescence; percent of sucrose octasulfate shift, DMSO zero | calls only at 9.99 µM | hit rate 1.5% among 340,000 | AID 651658;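 active = melting point raised past a set limit in the mean and every replicate; inconclusive = no clear call; three in four hits are not shown here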
Target sequence (Q9HCT0 whole entry, looked up): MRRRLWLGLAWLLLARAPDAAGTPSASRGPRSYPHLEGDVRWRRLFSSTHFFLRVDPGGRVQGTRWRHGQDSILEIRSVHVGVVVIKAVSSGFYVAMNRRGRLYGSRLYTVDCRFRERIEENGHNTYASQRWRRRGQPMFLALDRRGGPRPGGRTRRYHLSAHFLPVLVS
Ecoli growth = E. coli growth inhibition; hit rate 0.21% among 330,000; Escherichia coli growth, OD600, 23 h; stronger effect = lower value; OD600 absorbance (test concentration not listed);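 active = OD600 absorbance below the run mean of sample wells minus 3.6 SD, in any replicate, cut at about 0.56 in these data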;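 also: stock transfer was 300 nL into about 60 µL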
HNF4A DNA FP = change in binding of human HNF4 alpha to DNA; HNF4a-FITC DNA binding, fluorescence polarization, 1 h; activity change, % at 10 µM; hit rate 0.3% among 360,000; AID 1224865; in the data active = activity change above about 30%, passing the limit was not always enough;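 also: controls were the assay level and a saturating level of protein; the project sought stronger binding though the title names inhibitors; some compounds called inactive have numbers as strong as hits; positive values seem to mean higher polarization but the record does not say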
Target sequence (P41235 whole entry, looked up): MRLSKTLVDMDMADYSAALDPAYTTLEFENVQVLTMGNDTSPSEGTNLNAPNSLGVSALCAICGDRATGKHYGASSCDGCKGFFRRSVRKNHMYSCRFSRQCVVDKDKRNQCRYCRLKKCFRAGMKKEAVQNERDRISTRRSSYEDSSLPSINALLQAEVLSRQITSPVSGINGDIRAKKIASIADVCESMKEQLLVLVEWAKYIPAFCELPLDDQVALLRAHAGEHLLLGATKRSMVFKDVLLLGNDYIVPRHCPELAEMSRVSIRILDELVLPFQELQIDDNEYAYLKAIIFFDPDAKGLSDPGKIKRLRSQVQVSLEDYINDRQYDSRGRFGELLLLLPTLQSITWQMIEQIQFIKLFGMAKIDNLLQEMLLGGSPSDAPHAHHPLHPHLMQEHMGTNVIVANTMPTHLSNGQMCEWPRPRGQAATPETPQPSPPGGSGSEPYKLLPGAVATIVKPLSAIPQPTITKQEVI
RanGTP-Imp inh = disruptors of Ran-importin-beta complex formation – biochemical, FRET, CFP-Ran, YFP-importin-beta, homogeneous, primary screen. cell-free CFP-Ran/YFP-importin-beta FRET ratio. hit rate 1.1% among 300,000. inhibition, % (test concentration not listed);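 active = most replicates above 15%; inconclusive = exactly half above 15%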;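 also: 0% = DMSO wells and 100% = Ran loaded with GDP instead of GTP; wells of about 40 µL received 100 nL stock; the first replicate is given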
UCH37 inh = inhibitors of human deubiquitinating enzyme UCH37; inhibition, % (no concentration beside the values); purified proteasome/UCH37, Ub-AMC cleavage fluorescence; hit rate 0.33% among 330,000;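 active = mean of two replicates above 20%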;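 also: 0% = compound-free wells with enzyme and 100% = wells lacking proteasome; stock transfer was 100 nL into about 20 µL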
Target sequence (Q9Y5K5 whole entry, looked up): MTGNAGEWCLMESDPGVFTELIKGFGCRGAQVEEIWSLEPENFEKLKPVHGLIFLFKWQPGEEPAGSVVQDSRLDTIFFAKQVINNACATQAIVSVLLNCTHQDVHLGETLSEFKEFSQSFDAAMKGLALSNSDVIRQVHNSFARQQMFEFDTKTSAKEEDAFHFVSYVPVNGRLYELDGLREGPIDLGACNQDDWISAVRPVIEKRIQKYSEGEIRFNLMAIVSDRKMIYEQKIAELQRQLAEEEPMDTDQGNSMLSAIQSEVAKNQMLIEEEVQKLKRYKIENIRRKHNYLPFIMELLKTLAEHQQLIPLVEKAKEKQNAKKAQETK
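System: Proteasome-associated human UCH37 deubiquitinase; Input: 0.15 nM proteasome in added enzyme buffer; Also added: Ub-AMC substrate from 1 µM stock; Incubation: 30 min compound-proteasome preincubation then 25 min substrate reaction, room temperature; Detection: fluorescence, ex 355 nm, em 460 nm; Read-out: % inhibition of Ub-AMC cleavage fluorescence; Benchmarks: no-proteasome and no-compound wells.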
MLL AF4-AF9 inh = blocks AF4 peptide binding to human AF9; AlphaScreen, biotin-AF4 peptide binding to FLAG-AF9; inhibition, % at 10 µM; hit rate 0.47% among 350,000; AID 651704;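 active = every replicate reaching a set inhibition limit, whatever the replicate mean, cut at about 25% in these data; inconclusive = mean inhibition reaches that limit but some replicates miss it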;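 also: 0% = plate neutral control median and 100% = total signal loss; the record names both 10 and 1 µM as test concentration; the first replicate is given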
Vif TR-FRET = inhibitors of Vif binding to APOBEC3G peptide, primary screen, biochemical, TR-FRET, GST-Vif 1-94, biotin-A3G peptide, dose response retest (AID 1117319); TR-FRET GST-Vif / biotin-A3G peptide binding; higher % means a stronger effect; test concentration not given here; strong numbers were not always called active; inhibition, %; hits with a dose series show IC50 in µM; hit rate 0.57% among 260,000;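 active = above the screen mean plus three standard deviations and confirmed in dose response; inconclusive = results disagree or hit not tested in dose response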;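 also: Vif residues 1-94 fused to GST binding biotinylated APOBEC3G peptide 110-148; 0% = full assay without inhibitor and 100% = GST in place of GST-Vif; retest series ran down from 100 µM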
* marks the source's active call; other numbers are inactive results; & = joins results of further samples. Only part of the results is shown; the hit share may differ from the screen's.

The opening 2 entries (preview)
`Cn1cncc1C#Cc1ccc2c(=O)c3ccccc3oc2c1` gave FGF22 binding inactive, Ecoli growth 0.704, HNF4A DNA FP 5.3, UCH37 inh -8.8 and MLL AF4-AF9 inh 2.9.
For CN1OC[C@@H]2CN(Cc3ccc4c(c3)OCO4)[C@H](c3ccc(N4CCCCC4)cc3)C[C@@H]21 the results were FGF22 binding inactive, HNF4A DNA FP 8.4 and MLL AF4-AF9 inh 32.8*.

All compounds of this part, repeating the preview:
`Cn1cncc1C#Cc1ccc2c(=O)c3ccccc3oc2c1` gave FGF22 binding inactive, Ecoli growth 0.704, HNF4A DNA FP 5.3, UCH37 inh -8.8 and MLL AF4-AF9 inh 2.9.
For CN1OC[C@@H]2CN(Cc3ccc4c(c3)OCO4)[C@H](c3ccc(N4CCCCC4)cc3)C[C@@H]21 the results were FGF22 binding inactive, HNF4A DNA FP 8.4 and MLL AF4-AF9 inh 32.8*.
`CS(=O)(=O)c1cccc(C(=O)NCc2ccccc2)c1` gave FGF22 binding inactive, Ecoli growth 0.694, HNF4A DNA FP 2.9, RanGTP-Imp inh 7.2, UCH37 inh 2.3, MLL AF4-AF9 inh 2.7 and Vif TR-FRET 21.6%.
COc1ccc(Cc2nc3ccc(S(=O)(=O)N4CCOCC4)cc3[nH]2)cc1 was read as Ecoli growth 0.743, HNF4A DNA FP -1.8, RanGTP-Imp inh -0.9, UCH37 inh 1.9 and Vif TR-FRET 5.6%.
Screening COc1ccc(OCC(=O)Nc2ccccc2Cl)cc1 returned FGF22 binding inactive, Ecoli growth 0.73, HNF4A DNA FP 0.3, RanGTP-Imp inh 0.3, UCH37 inh 2.9, MLL AF4-AF9 inh 1.4 and Vif TR-FRET -9.0%.
COc1ccc(NC(=O)c2onc(C)c2Cl)cc1OC was read as FGF22 binding inactive, Ecoli growth 0.698, HNF4A DNA FP -1.3, RanGTP-Imp inh inconclusive, UCH37 inh 2.7, MLL AF4-AF9 inh -2.7 and Vif TR-FRET 0.1%.
CS(=O)(=O)N1CCN(c2ccccc2NC(=O)c2ccco2)CC1 was read as FGF22 binding inactive, Ecoli growth 0.66, HNF4A DNA FP -2.2, RanGTP-Imp inh -2.3, UCH37 inh -1.1, MLL AF4-AF9 inh -29.1 and Vif TR-FRET -0.3%.
For CCN1C(=O)/C(=C/N(C)c2ccccc2)OC1=S the results were FGF22 binding inactive, Ecoli growth 0.7, HNF4A DNA FP -1.0, RanGTP-Imp inh -1.9, UCH37 inh 9.4, MLL AF4-AF9 inh 11.5 and Vif TR-FRET 1.0%.
`COC(=O)Nc1nnc(-c2ccncc2)s1` gave Ecoli growth 0.711, HNF4A DNA FP -2.7, RanGTP-Imp inh 6.7, UCH37 inh -221.9 and Vif TR-FRET 6.9%.
For Cc1ccc(NC2CCCN(C(=O)CSc3ccncc3)C2)cc1C (stereo not drawn) the results were FGF22 binding inactive, Ecoli growth 0.71, HNF4A DNA FP 4.5, RanGTP-Imp inh 3.4, UCH37 inh 1.9 and MLL AF4-AF9 inh 8.5.
`O=C(c1ccccc1)c1ccc(N2CCOCC2)c(NC(=O)c2ccco2)c1` gave Ecoli growth 0.699, HNF4A DNA FP -4.1, RanGTP-Imp inh -0.6, UCH37 inh 3.5 and Vif TR-FRET 15.5%.
O=C(COC(=O)c1ccc[nH]c1=O)c1ccc(Cl)s1 was read as Ecoli growth 0.701, HNF4A DNA FP 2.4, RanGTP-Imp inh 3.0, UCH37 inh -1.0 and Vif TR-FRET -3.8%.
For O=C(Nc1cc(SCCO)cc([N+](=O)[O-])c1)c1ccc(Br)o1 the results were Ecoli growth 0.646, HNF4A DNA FP -1.7, RanGTP-Imp inh -3.1, UCH37 inh 4.3 and Vif TR-FRET 4.7%.
`N#CC1=C(N)OC2=C(CCc3ccccc32)C1c1ccccc1Cl` (stereo not drawn) gave FGF22 binding inactive, Ecoli growth 0.662, HNF4A DNA FP 3.4, RanGTP-Imp inh 3.9, UCH37 inh -2.7 and MLL AF4-AF9 inh 4.9.
Screening O=[N+]([O-])c1ccccc1N/N=C/c1cc2ccccc2nc1Cl returned HNF4A DNA FP -1.6, RanGTP-Imp inh -0.6 and Vif TR-FRET 26.9%.
C/C=C/C(=O)OCC(=O)Nc1cc([N+](=O)[O-])ccc1Cl was read as Ecoli growth 0.685, HNF4A DNA FP 1.5, RanGTP-Imp inh inconclusive, UCH37 inh -0.7 and Vif TR-FRET inconclusive.
COc1ccc(-c2ccc(=O)n(Cc3ccccc3)n2)cc1 was read as FGF22 binding inactive, Ecoli growth 0.644, HNF4A DNA FP 1.5, RanGTP-Imp inh 3.5, UCH37 inh -18.0 and MLL AF4-AF9 inh 1.4.
For CC(=O)Nc1ccccc1Sc1ccc2c3c(cccc13)C(=O)N(c1ccc(C)cc1)C2=O the results were Ecoli growth 0.695, HNF4A DNA FP 0.7, RanGTP-Imp inh -8.5, UCH37 inh -16.9 and Vif TR-FRET 3.8%.
`CCCCOc1ccc(C(=O)Nc2cccc(-n3cnnn3)c2)cc1OC` gave FGF22 binding inactive, Ecoli growth 0.691, HNF4A DNA FP 0.5, RanGTP-Imp inh 2.7, UCH37 inh 1.0 and MLL AF4-AF9 inh 0.6.
For C[C@H](CO)N1C[C@H](C)[C@@H](CN(C)C(=O)NC2CCCCC2)Oc2c(NS(=O)(=O)c3cccs3)cccc2C1=O the results were FGF22 binding inactive, HNF4A DNA FP 1.6, UCH37 inh 3.8 and MLL AF4-AF9 inh -3.7&-3.9.
Screening CCOc1nc(-c2ccccc2)c2cc(C)ccc2n1 returned FGF22 binding inactive, Ecoli growth 0.701, HNF4A DNA FP -0.6, RanGTP-Imp inh 0.6, UCH37 inh -129.7 and MLL AF4-AF9 inh -0.2.
`Cc1noc(C)c1CNCc1ccccc1` gave FGF22 binding inactive, Ecoli growth 0.675, HNF4A DNA FP 0.2, RanGTP-Imp inh 5.2, UCH37 inh 4.2, MLL AF4-AF9 inh -2.0 and Vif TR-FRET -3.3%.
COc1ccc(N2CC(C(=O)N3CCN(c4ccccc4)CC3)CC2=O)cc1 (stereo not drawn) was read as FGF22 binding inactive, Ecoli growth 0.693, HNF4A DNA FP 3.0, RanGTP-Imp inh -0.5, UCH37 inh 1.4 and MLL AF4-AF9 inh -0.9.
Screening Cc1cc(C(=O)CSc2nnc(-c3ccc4c(c3)OCO4)o2)c(C)n1-c1ccc(F)cc1 returned FGF22 binding inactive, Ecoli growth 0.725, HNF4A DNA FP 1.6, RanGTP-Imp inh 4.1, UCH37 inh 1.5, MLL AF4-AF9 inh 0.0 and Vif TR-FRET 10.3%.
For CC(=O)c1ccc(NC(=O)CCNC(=O)c2ccccc2Cl)cc1 the results were FGF22 binding inactive, Ecoli growth 0.67, HNF4A DNA FP 1.3, RanGTP-Imp inh 0.0, UCH37 inh 3.0 and MLL AF4-AF9 inh -34.8.
O=C(OCC(=O)N1CCc2ccccc2C1)c1ccc(Cl)c([N+](=O)[O-])c1 was read as FGF22 binding inactive, Ecoli growth 0.692, HNF4A DNA FP 0.7, UCH37 inh 0.1, MLL AF4-AF9 inh -1.1 and Vif TR-FRET -5.0%.
`Cc1cc(NC(=O)c2ccc([N+](=O)[O-])cc2Cl)ccc1NC(=O)c1ccco1` gave FGF22 binding inactive, Ecoli growth 0.702, HNF4A DNA FP 0.2, RanGTP-Imp inh 5.9, UCH37 inh 1.2, MLL AF4-AF9 inh 2.6 and Vif TR-FRET 1.2%.
`CCCCOc1ccc(/C(O)=C2/C(=O)C(=O)N(Cc3cccnc3)C2c2ccncc2)c(C)c1` (stereo not drawn) gave Ecoli growth 0.63, HNF4A DNA FP -0.8, RanGTP-Imp inh 3.1, UCH37 inh 11.2 and Vif TR-FRET -6.5%.
O=C(NNC1OC(CO)C(O)C(O)C1O)c1cccc(Br)c1 (stereo not drawn) was read as FGF22 binding inactive, Ecoli growth 0.675, HNF4A DNA FP 2.9, RanGTP-Imp inh -1.1, UCH37 inh 3.1 and MLL AF4-AF9 inh -18.9.
Cc1cc2cc(CN(Cc3ccco3)C(=S)NCC3CCCO3)c(=O)[nH]c2cc1C (stereo not drawn) was read as Ecoli growth 0.691, HNF4A DNA FP -2.0, RanGTP-Imp inh -2.0, UCH37 inh -1.5 and Vif TR-FRET -11.8%.
`O=C(Nc1ccc(C(=O)N2CCCCC2)cc1)c1ccccc1Br` gave Ecoli growth 0.711, HNF4A DNA FP -0.5, RanGTP-Imp inh 3.5, UCH37 inh 1.6 and MLL AF4-AF9 inh 0.1.
Screening COC(=O)c1ccc(/C=N/NC(=O)CC(=O)NC(C)C)cc1 returned FGF22 binding inactive, HNF4A DNA FP -0.6, RanGTP-Imp inh -1.3, MLL AF4-AF9 inh -1.8 and Vif TR-FRET 1.4%.
`CCOC(=O)c1c(-n2c(C)cc(C=O)c2C)sc2c1CCCC2` gave FGF22 binding inactive, Ecoli growth 0.704, HNF4A DNA FP 0.8, RanGTP-Imp inh -0.6, UCH37 inh -0.7, MLL AF4-AF9 inh 3.1 and Vif TR-FRET -2.4%.
Screening COc1ccc(-c2[nH]nc3oc(=O)cc(C)c23)cc1 returned Ecoli growth 0.695, HNF4A DNA FP 4.6, RanGTP-Imp inh 2.8, UCH37 inh -75.1 and Vif TR-FRET -6.0%.
`Cc1c(N2C(=O)CS/C2=N\N=C\c2ccc(Br)cc2)c(=O)n(-c2ccccc2)n1C` gave HNF4A DNA FP -0.3, RanGTP-Imp inh -2.6 and Vif TR-FRET 1.9%.
Screening COc1ccc(C(=O)NCc2nnc(SCC(=O)N3CCc4ccccc43)n2Cc2ccccc2)cc1 returned FGF22 binding inactive, Ecoli growth 0.74, HNF4A DNA FP -0.5, RanGTP-Imp inh -1.3, UCH37 inh 5.2, MLL AF4-AF9 inh -0.2 and Vif TR-FRET 32.0%.
Cc1c(C(=O)N2CC[C@@H](N3CCC(O)CC3)[C@H](O)C2)[nH]c2ccc(Cl)cc12 was read as FGF22 binding inactive, Ecoli growth 0.683, HNF4A DNA FP 7.4, RanGTP-Imp inh 9.5, UCH37 inh 6.0, MLL AF4-AF9 inh 0.1 and Vif TR-FRET -10.5%.
Screening N#C/C(=C\c1cccs1)C(=O)N1CCOCC1 returned FGF22 binding inactive, Ecoli growth 0.679, HNF4A DNA FP 10.6, RanGTP-Imp inh 6.9, UCH37 inh 11.6, MLL AF4-AF9 inh 1.8 and Vif TR-FRET 4.2%.
CC1(C(=O)Nc2ccc3c(c2)OCCO3)CSCC(=O)N1C1CC1 (stereo not drawn) was read as FGF22 binding inactive, HNF4A DNA FP 3.4 and MLL AF4-AF9 inh 1.7.
For CC(C)C(=O)Nc1cc(S(=O)(=O)Nc2cccc(Cl)c2)ccc1Cl the results were FGF22 binding inactive, Ecoli growth 0.685, HNF4A DNA FP 4.9, RanGTP-Imp inh 0.3, UCH37 inh 1.5, MLL AF4-AF9 inh -1.1 and Vif TR-FRET 5.9%.
O=CN(Cc1ccccc1)c1cc([N+](=O)[O-])ccc1OCc1ccccc1 was read as FGF22 binding inactive, HNF4A DNA FP 0.9, MLL AF4-AF9 inh -4.9 and Vif TR-FRET -4.6%.
For Cc1nn(-c2ccccc2)c(C)c1P(=O)(c1ccccc1)N(C)C (stereo not drawn) the results were FGF22 binding inactive, Ecoli growth 0.646, HNF4A DNA FP 2.9, RanGTP-Imp inh 1.8, UCH37 inh 2.2, MLL AF4-AF9 inh 2.7 and Vif TR-FRET 0.1%.
`Cc1c(C(=O)Nc2ccc(Cl)cc2)c2ccccn2c1C(=O)c1ccc(F)cc1` gave Ecoli growth 0.703, HNF4A DNA FP 1.5, RanGTP-Imp inh 7.8, UCH37 inh -19.5 and Vif TR-FRET -5.5%.
Cc1ccccc1CS(=O)(=O)Cc1ccc(C(=O)NCc2ccccn2)o1 was read as Ecoli growth 0.707, HNF4A DNA FP -4.9, RanGTP-Imp inh -2.0, UCH37 inh 3.1 and Vif TR-FRET 13.6%.
